NOMO-1 viab = NOMO-1 AML cell viability reduction, primary screen, STK33 inhibitor project, CellTiter-Glo luminescence; NOMO-1 AML viability, 72 h; inhibition, % (no concentration beside the values); 37,000 compounds, 7.5% hits; AID 2330, 2010;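 active = most replicates above 80%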;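 note: wells of about 30 µL received 25 nL stock; 0% = median of vehicle wells and 100% = reference inhibitor level; the first replicate is given; inactives centre near 10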
An asterisk follows results filed as active. These rows are one share of the data; count on the stated rates, not on these rows.

Preview:
compound | NOMO-1 viab
CCn1c(SCC(=O)Nc2ccc(C)c(C)c2)nnc1-c1ccncc1 | -1.1
CN(Cc1nc(-c2cccc([N+](=O)[O-])c2)no1)S(=O)(=O)c1ccc(Cl)cc1 | 45.7
CS(=O)(=O)N(CC(=O)Nc1ccc(Br)cc1)c1cccc(C(F)(F)F)c1 | 46.4
Cc1cc(C)cc(N(CC(=O)O)S(=O)(=O)c2ccccc2)c1 | 17.4
N=c1sc2ccccc2n1C(=O)OCc1ccccc1 | 2.7

Main list, repeating the preview:
compound | NOMO-1 viab
CCn1c(SCC(=O)Nc2ccc(C)c(C)c2)nnc1-c1ccncc1 | -1.1
CN(Cc1nc(-c2cccc([N+](=O)[O-])c2)no1)S(=O)(=O)c1ccc(Cl)cc1 | 45.7
CS(=O)(=O)N(CC(=O)Nc1ccc(Br)cc1)c1cccc(C(F)(F)F)c1 | 46.4
Cc1cc(C)cc(N(CC(=O)O)S(=O)(=O)c2ccccc2)c1 | 17.4
N=c1sc2ccccc2n1C(=O)OCc1ccccc1 | 2.7
COc1ccc(NC(=O)Nc2ccc3c(c2)C(=O)N([C@@H](C)CO)C[C@@H](C)[C@@H](CN(C)S(=O)(=O)c2ccccc2)O3)cc1 | 17.7
O=C(Cn1ccc([N+](=O)[O-])n1)Nc1cc(F)ccc1F | 4.1
Cc1noc(C)c1NC(=O)N(C)C[C@@H]1Oc2ccc(NS(C)(=O)=O)cc2C(=O)N([C@H](C)CO)C[C@H]1C | -14.5

(next part)
compound | NOMO-1 viab
COc1cc(-c2oc3cc(O)cc(O)c3c(=O)c2O)ccc1O | 25.9
Cc1noc(C)c1NC(=O)Nc1ccc2c(c1)CC(=O)N([C@H](C)CO)C[C@@H](C)[C@H](CN(C)Cc1ccc(-c3ccccc3)cc1)O2 | 8.0
O=C1c2ccccc2C(=O)N1CCc1nc(-c2cccc([N+](=O)[O-])c2)no1 | -2.4
O=C(NCCc1c[nH]c2ccccc12)NC1CCCCC1 | 9.1
COC(=O)c1ccc(NC(=O)CN(c2ccc(F)cc2)S(C)(=O)=O)cc1 | 17.5
Cc1noc(C)c1S(=O)(=O)Nc1ccc2c(c1)C(=O)N([C@H](C)CO)C[C@H](C)[C@@H](CN(C)C(=O)Nc1cccc3ccccc13)OCCCC[C@@H](C)O2 | 39.7
C[C@H]1CN([C@@H](C)CO)C(=O)c2cc(NC(=O)Cn3cnnn3)ccc2O[C@H]1CN(C)S(=O)(=O)c1cccs1 | -7.5
COc1ccc(-c2nc3ccccc3s2)cc1NC(=O)COc1ccc(Br)cc1 | 13.0

(cont.)
compound | NOMO-1 viab
C[C@@H]1CN([C@H](C)CO)C(=O)Cc2cc(NC(=O)CCN3CCOCC3)ccc2O[C@H]1CN(C)Cc1ccc(C(=O)Nc2ccccc2N)cc1 | -2.8
CCOc1ccc2nc(SCC(=O)Nc3c(C)n(C)n(-c4ccccc4)c3=O)sc2c1 | 28.3
C[C@@H]1CN([C@@H](C)CO)C(=O)c2cc(NC(=O)Nc3cccc4ccccc34)ccc2O[C@H]1CN(C)Cc1ccc(-c2ccccc2)cc1 | 20.8
Cc1ccc(S(=O)(=O)n2nc(-c3ccc(Cl)cc3)nc2NCc2ccco2)cc1 | 38.2
O=C(NCc1ccco1)c1ccc2c(c1)C(=O)N(CC1CCCO1)C2=O (configuration not stated) | 14.5
O=C(NCCN1CCOCC1)c1cc(-n2cnnc2)ccc1Cl | -14.7
C[C@H](CO)N1C[C@H](C)[C@H](CN(C)C(=O)Nc2ccc(C(F)(F)F)cc2)Oc2ccc(NS(=O)(=O)c3ccc(F)cc3)cc2CC1=O | 3.5
Cc1n[nH]c(C)c1SCC(=O)Nc1cccc(Br)c1 | 4.6

Further records
compound | NOMO-1 viab
CNC[C@H]1Oc2c(NS(=O)(=O)c3cccs3)cccc2C(=O)N([C@H](C)CO)C[C@@H]1C | 25.9
COc1ccc(CN(C)C[C@@H]2Oc3ccc(NC(=O)Nc4ccccc4)cc3C(=O)N([C@@H](C)CO)C[C@@H]2C)cc1 | 11.3
Cc1ccc(S(=O)(=O)N(C)C[C@@H]2Oc3ccc(NC(=O)C4CC4)cc3C(=O)N([C@@H](C)CO)C[C@H]2C)cc1 | 11.2
Cc1ccc(C)c(OCCNS(=O)(=O)c2cc([N+](=O)[O-])ccc2C)c1 | 6.8
CCOc1ccc(OCC)c(S(=O)(=O)NC2CC(C)(C)NC(C)(C)C2)c1 | 2.9
COc1ccc(S(=O)(=O)Nc2ccc3c(c2)CC(=O)N([C@@H](C)CO)C[C@H](C)[C@H](CN(C)S(=O)(=O)c2ccc(OC)cc2)O3)cc1 | 10.3
N#CCCCN1C(=O)C(O)(CC(=O)c2ccc(Br)s2)c2ccccc21 (configuration not stated) | 46.6
O=C(NC(=S)NC12CC3CC(CC(C3)C1)C2)c1ccccc1 | 25.7

Rewritten with each value named: 3 of the compounds above.
Cc1ccc(C)c(OCCNS(=O)(=O)c2cc([N+](=O)[O-])ccc2C)c1
  NOMO-1 viab: 6.8

Cc1ccc(S(=O)(=O)N(C)C[C@@H]2Oc3ccc(NC(=O)C4CC4)cc3C(=O)N([C@@H](C)CO)C[C@H]2C)cc1
  NOMO-1 viab: 11.2

COc1ccc(CN(C)C[C@@H]2Oc3ccc(NC(=O)Nc4ccccc4)cc3C(=O)N([C@@H](C)CO)C[C@@H]2C)cc1
  NOMO-1 viab: 11.3

Next results:
compound | NOMO-1 viab
CCOc1cc(C(=O)O)cc(I)c1OCC(=O)O | 6.6
Cc1nc(C)c(C(=O)C2C(=O)C(=O)N(CCCN3CCOCC3)C2c2ccccc2)s1 (configuration not stated) | -9.8
C[C@H](CO)N1C[C@H](C)[C@H](CN(C)Cc2ccncc2)Oc2ccc(NC(=O)C3CCCCC3)cc2CC1=O | 1.0
Cc1c(Br)ccc(NC(=O)CSc2nnc(-c3ccc(Cl)cc3)n2C)c1C | 32.6
C[C@@H]1CCCCO[C@@H](CN(C)C(=O)Nc2ccc(F)cc2)[C@@H](C)CN([C@H](C)CO)C(=O)c2cc(NC(=O)CCCCCC(=O)Nc3ccccc3N)ccc2O1 | 22.8
C[C@@H]1CN([C@@H](C)CO)C(=O)c2cc(NC(=O)Cc3cn(C)c4ccccc34)ccc2O[C@H]1CN(C)S(=O)(=O)c1ccccc1 | 27.8
C[C@H]1CN([C@@H](C)CO)C(=O)c2cc(NC(=O)Nc3ccc(C(F)(F)F)cc3)ccc2O[C@@H]1CN(C)Cc1ccccc1 | 94.3*
Cc1noc(C)c1S(=O)(=O)N(C)C[C@@H]1Oc2ccc(NC(=O)Nc3ccc4c(c3)OCO4)cc2C(=O)N([C@@H](C)CO)C[C@@H]1C | -0.4

Later entries
compound | NOMO-1 viab
C=C[C@H]1C(O[C@@H]2O[C@H](CO)[C@@H](O)[C@H](O)[C@H]2O)OC=C2C(=O)N3CCc4c([nH]c5ccccc45)[C@H]3C[C@H]21 (some centres not stated) | 15.1
C[C@H]1CN([C@@H](C)CO)C(=O)Cc2cc(N(C)C)ccc2O[C@H]1CN(C)Cc1ccncc1 | -15.5
C[C@@H]1CN([C@H](C)CO)C(=O)c2cccc(NS(=O)(=O)c3cccs3)c2O[C@@H]1CN(C)C(=O)Nc1ccc2c(c1)OCO2 | 20.0
O=C(CCC(=O)N(Cc1ccccc1)Cc1ccccc1)Nc1ccc(F)cc1 | 29.6
Cc1ccc(S(=O)(=O)Nc2ccc3c(c2)C(=O)N([C@H](C)CO)C[C@H](C)[C@@H](CN(C)Cc2ccc4c(c2)OCO4)OCCCC[C@@H](C)O3)cc1 | 46.1
C[C@H]1CN([C@@H](C)CO)C(=O)c2cc(NS(=O)(=O)c3ccc(F)cc3)ccc2O[C@@H]1CN(C)Cc1ccc(Cl)c(Cl)c1 | 110.1*
O=C(c1ccccc1)n1ccc2ccccc21 | -24.4
C[C@@H]1CN([C@H](C)CO)C(=O)c2cc(NC(=O)NC3CCCCC3)ccc2O[C@H]1CN(C)S(=O)(=O)c1cn(C)cn1 | 6.7

The list continues.
compound | NOMO-1 viab
COc1ccc(-c2cc(C(F)F)n3ncc(C(=O)Nc4cccc(NC(C)=O)c4)c3n2)cc1 | 28.9
COC(=O)c1ccc(C(=O)OC)c(NC(=O)CSc2nc(C)cc(C)n2)c1 | 13.7
Cc1noc(C)c1S(=O)(=O)Nc1ccc2c(c1)C(=O)N([C@H](C)CO)C[C@@H](C)[C@@H](CN(C)C(=O)Nc1ccc(C(F)(F)F)cc1)O2 | 4.1
C[C@H]1CN([C@@H](C)CO)C(=O)Cc2cc(NC(=O)Cc3cn(C)c4ccccc34)ccc2O[C@@H]1CN(C)Cc1ccncc1 | -21.0
Cc1ccc(NC(=O)C(C)Oc2ccc(Cl)cc2Cl)c([N+](=O)[O-])c1 (configuration not stated) | 21.5
C[C@H](CO)N1C[C@H](C)[C@@H](CN(C)Cc2ccc(Cl)c(Cl)c2)Oc2ccc(NC(=O)Nc3ccc(C(F)(F)F)cc3)cc2C1=O | 64.6
C[C@@H]1CN([C@H](C)CO)C(=O)c2cccc(NC(=O)c3nc4ccccc4s3)c2O[C@H]1CN(C)C(=O)Nc1cccc2ccccc12 | 43.6
C[C@@H]1CN([C@H](C)CO)C(=O)c2cc(NS(=O)(=O)c3cn(C)cn3)ccc2O[C@@H]1CN(C)C(=O)Nc1ccc(C(F)(F)F)cc1 | 8.8

Further entries.
compound | NOMO-1 viab
C[C@H]1CN([C@@H](C)CO)C(=O)c2cc(NC(=O)c3ccncc3)ccc2O[C@H]1CN(C)S(=O)(=O)c1ccccc1 | 7.4
CCOC(=O)C(C#N)C(c1cccnc1)c1[nH]c(C)nc1O (configuration not stated) | 30.6
C[C@@H]1CN([C@H](C)CO)C(=O)Cc2cc(NC(=O)CCCCCC(=O)Nc3ccccc3N)ccc2O[C@@H]1CN(C)C(=O)Nc1ccc2c(c1)OCO2 | 8.7
C[C@H]1CN([C@@H](C)CO)C(=O)c2cccc(NC(=O)Nc3ccc4c(c3)OCO4)c2O[C@@H]1CN(C)CC1CCCCC1 | 77.6
C[C@@H]1CN([C@H](C)CO)C(=O)Cc2cc(NC(=O)Cc3ccccc3)ccc2O[C@@H]1CN(C)Cc1ccc(C(=O)O)cc1 | -8.0
C[C@@H]1CN([C@H](C)CO)C(=O)c2cc(NS(C)(=O)=O)ccc2O[C@@H]1CN(C)Cc1ccncc1 | 10.8
C[C@@H]1CN([C@H](C)CO)C(=O)c2cc(NS(=O)(=O)c3ccc(Cl)cc3)ccc2O[C@@H]1CN(C)Cc1ccc(C(=O)O)cc1 | 7.9
C[C@@H]1CN([C@H](C)CO)C(=O)c2cc(NC(=O)Nc3ccc4c(c3)OCO4)ccc2O[C@@H]1CN(C)S(=O)(=O)c1ccc(F)cc1 | 95.0*

Additional compounds.
compound | NOMO-1 viab
CCc1nnc(NS(=O)(=O)c2ccc(NC(=O)c3ccc(F)cc3)cc2)s1 | -23.0
C[C@H]1CN([C@@H](C)CO)C(=O)Cc2cc(NC(=O)CCC(F)(F)F)ccc2O[C@H]1CN(C)Cc1ccc(-c2ccccc2)cc1 | 30.9
COC(=O)c1ccccc1NC(=O)Cn1c(SC)c(F)cnc1=O | -6.9
COc1ccc([C@H]2COc3c(ccc(O)c3OC)C2)c(OC)c1O | -4.5
COc1ccc(NC(=O)Nc2ccc3c(c2)CC(=O)N([C@H](C)CO)C[C@@H](C)[C@@H](CN(C)S(=O)(=O)c2ccc(Cl)cc2)O3)cc1 | 3.5
C[C@@H]1CN([C@@H](C)CO)C(=O)c2cc(NS(=O)(=O)c3ccccc3)ccc2O[C@@H]1CN(C)Cc1ccc(C(=O)Nc2ccccc2N)cc1 | 109.8*
CC1(C)CC[C@]2(C(=O)O[C@@H]3O[C@H](CO)[C@@H](O)[C@H](O)[C@H]3O)CC[C@]3(C)C(=CCC4[C@@]5(C)C[C@H](O)[C@H](O[C@@H]6O[C@H](C(=O)O)[C@@H](O)[C@H](O)[C@H]6O)[C@@](C)(CO)C5CC[C@]43C)C2C1 (some centres not stated) | -0.1
C[C@H]1CN([C@@H](C)CO)C(=O)c2cc(NC(=O)Nc3ccc(C(F)(F)F)cc3)ccc2O[C@@H]1CN(C)Cc1ccc(Oc2ccccc2)cc1 | 48.2

Going on with the list:
compound | NOMO-1 viab
C[C@H]1CN([C@@H](C)CO)C(=O)Cc2cc(NC(=O)Nc3ccc(C(F)(F)F)cc3)ccc2O[C@@H]1CN(C)S(=O)(=O)c1cccs1 | 70.0
CCc1c(O)nc(SCC(=O)Nc2ccc(Cl)cc2Cl)n(-c2ccccc2)c1=O | 7.7
C[C@@H]1CCCCO[C@@H](CN(C)Cc2ccc(Cl)c(Cl)c2)[C@@H](C)CN([C@H](C)CO)C(=O)c2cc(NC(=O)c3ccncc3)ccc2O1 | 48.1
COc1cc(CNC23CC4CC(CC(C4)C2)C3)ccc1OCC(N)=O | -21.7
C[C@H](CO)N1C[C@H](C)[C@@H](CN(C)Cc2ccc(C(F)(F)F)cc2)Oc2c(NC(=O)Nc3ccc(F)cc3)cccc2C1=O | 112.6*
C[C@H](CO)N1C[C@H](C)[C@H](CN(C)C(=O)Nc2ccc(F)cc2)Oc2c(NC(=O)Nc3ccccc3)cccc2C1=O | 11.4
O=C(CC1NCCNC1=O)Nc1ccc(Oc2ccccc2)cc1 (configuration not stated) | -6.9
C[C@H](CO)N1C[C@H](C)[C@@H](CN(C)C(=O)Nc2ccc(C(F)(F)F)cc2)Oc2c(NC(=O)NC3CCCCC3)cccc2C1=O | 68.7
Cc1cc(C(=O)Nc2cccc3c2O[C@H](CN(C)Cc2ccc4c(c2)OCO4)[C@@H](C)CN([C@H](C)CO)C3=O)n(C)n1 | 28.3

Source: PubChem (Broad Institute)
